Screens from PubChem.
ALR inh = human ALR oxidase inhibition via reduced H2O2 | inhibition, % (concentration not given with the values) | 290,000 tested, 3.8% active | purified ALR, DTT oxidation, H2O2 HRP-luminol luminescence | P55789;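 active = mean and each replicate at 75% or more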;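 also: stock transfer was 7.5 nL into about 7.5 µL; 0% = neutral wells and 100% = wells with inactivated enzyme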
Ecoli growth = E. coli growth inhibition; Escherichia coli growth, OD600, 23 h; active compounds read low; OD600 absorbance (no concentration beside the values); 330,000 tested, 0.21% active; AID 1053175;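 active = OD600 absorbance below the run mean of sample wells minus 3.6 SD, in any replicate, cut at about 0.56 in these data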;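 also: stock transfer was 300 nL into about 60 µL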
HNF4A DNA FP = change in binding of human HNF4 alpha to DNA. activity change, % at 10 µM. 360,000 tested, 0.3% active. P41235. HNF4a-FITC DNA binding, fluorescence polarization, 1 h; in the data active = activity change above about 30%, passing the limit was not always enough;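 also: controls were the assay level and a saturating level of protein; the project sought stronger binding though the title names inhibitors; some compounds called inactive have numbers as strong as hits; positive values seem to mean higher polarization but the record does not say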
FGF22 binding = binders of recombinant human FGF22 by thermal shift; Q9HCT0; SYPRO orange fluorescence; percent of sucrose octasulfate shift, DMSO zero; calls only at 9.99 µM; 340,000 tested, 1.5% active; AID 651658;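 active = melting point raised past a set limit in the mean and every replicate; three in four hits are not shown here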
Target sequence (Q9HCT0 whole entry, looked up): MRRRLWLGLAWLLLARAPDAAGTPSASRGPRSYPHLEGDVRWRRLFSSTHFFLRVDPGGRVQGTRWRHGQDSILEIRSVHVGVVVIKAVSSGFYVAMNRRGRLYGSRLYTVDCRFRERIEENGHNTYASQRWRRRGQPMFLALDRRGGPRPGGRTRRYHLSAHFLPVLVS
UCH37 DUB inh = blocks the human deubiquitinase UCH37 | Q9Y5K5 | purified proteasome/UCH37, Ub-AMC cleavage fluorescence | AID 588478 | inhibition, % (test concentration not listed) | 330,000 tested, 0.33% active;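 active = mean of two replicates above 20%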;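 also: 0% = compound-free wells with enzyme and 100% = wells lacking proteasome; stock transfer was 100 nL into about 20 µL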
Target sequence (Q9Y5K5 whole entry, looked up): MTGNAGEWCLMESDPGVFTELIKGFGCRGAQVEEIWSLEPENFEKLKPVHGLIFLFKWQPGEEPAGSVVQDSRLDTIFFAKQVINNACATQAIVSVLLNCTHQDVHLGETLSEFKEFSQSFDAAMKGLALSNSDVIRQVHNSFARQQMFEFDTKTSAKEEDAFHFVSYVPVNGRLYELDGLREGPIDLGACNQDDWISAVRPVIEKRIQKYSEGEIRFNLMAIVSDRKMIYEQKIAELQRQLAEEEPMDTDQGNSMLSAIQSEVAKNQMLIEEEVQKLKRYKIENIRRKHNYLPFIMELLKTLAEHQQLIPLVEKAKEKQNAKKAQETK
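Schedule: 30 min plus 25 min, room temperature / Material: human UCH37 within purified proteasomes / Technique: AMC fluorescence intensity at 355/460 nm / Buffer or medium: pH 7.4 Tris-HCl (50 mM) with ovalbumin, ATP-MgCl2, DTT / Controls: wells without proteasome as full block, compound-free enzyme plus substrate as uninhibited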
LANA-H2A inh = blocks KSHV LANA binding to histone H2A/H2B; cell-free LANA-H2A/H2B peptide, fluorescence polarization; inhibition, % (no concentration beside the values); AID 2629; 320,000 tested, 0.6% active; Q9QR71; in the data active = inhibition mostly above about 10%, no sharp cut-off; inactive = mostly below about 6.7%;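 also: stock transfer was 7.5 nL into about 10 µL; 0% = median of vehicle wells and 100% = median of positive control wells; one replicate is shown; the record names a cut of 25% in any replicate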
B2AR ag = human beta-2 adrenergic receptor agonism by FAP | Am2.2-beta2AR cells, FAP receptor internalization, flow cytometry; reference of the scale not given here | 340,000 tested, 0.43% active | response, % (test concentration not listed);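 active = response above a set limit, near 3 SD of response in nonfluorescent compounds, cut at about 42% in these data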;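 also: stock transfer was 100 nL into about 11 µL; a reference agonist was the positive control; negative values mostly stem from fluorescent compounds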
Target sequence (P07550 whole entry, looked up): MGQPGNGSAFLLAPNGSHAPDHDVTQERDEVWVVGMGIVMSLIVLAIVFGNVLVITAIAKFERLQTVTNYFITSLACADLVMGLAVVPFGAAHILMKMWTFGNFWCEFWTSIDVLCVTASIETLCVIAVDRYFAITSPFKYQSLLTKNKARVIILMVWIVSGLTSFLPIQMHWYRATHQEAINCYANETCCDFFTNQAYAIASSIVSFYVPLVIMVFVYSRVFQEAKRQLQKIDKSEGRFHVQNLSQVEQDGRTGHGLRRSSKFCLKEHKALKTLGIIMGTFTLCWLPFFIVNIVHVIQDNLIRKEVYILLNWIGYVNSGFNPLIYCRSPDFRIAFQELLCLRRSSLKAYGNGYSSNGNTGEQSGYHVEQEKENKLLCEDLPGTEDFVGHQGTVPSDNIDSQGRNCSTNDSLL
* hit, by the source's call; i = inactive; · = not tested or not shown; & = joins results of further samples.

Order of values: ALR inh | Ecoli growth | HNF4A DNA FP | FGF22 binding | UCH37 DUB inh | LANA-H2A inh | B2AR ag
1: COc1ccc(CN(CC2CCC(C(=O)O)CC2)C(=S)Nc2ccc(C)c(Cl)c2)cc1 (centres undefined)
  55 | 0.68 | 5.0 | i | 1.7 | 1.7 | 2
2: COc1ccc(NC(=S)NN2CCN(C)CC2)cc1
  15 | 0.71 | -1.5 | · | 3.3 | 1.5 | -5
3: O=C(CSc1nc(C(F)(F)F)cc(=O)[nH]1)NCC1CCCO1 (centres undefined)
  · | 0.69 | -1.1 | i | 3.6 | 1.6 | 0
4: CCC(C(=O)NC1CCCCC1)n1nc(C)c2c(C)n(-c3ccccc3)nc2c1=O (centres undefined)
  -6 | 0.65 | -0.4 | i | 0.4 | 0.6 | -11
5: O=C(Nc1ccc2oc(-c3ccccc3)nc2c1)c1ccco1
  8 | 0.71 | 0.0 | i | -102 | 3.5 | -18
6: CN(C)/C=N/c1c(C#N)nnn1Cc1ccccc1
  -10 | · | -0.6 | · | · | -1.2 | -11
7: CCN(CC(=O)Nc1c(F)cccc1F)C(=O)c1nn(C)c(=O)c2ccccc12
  -4 | 0.71 | -1.9 | i | 2.1 | 1.4 | -9
8: CCC(=O)Nc1ccc(NC(=O)c2ccccn2)cn1
  -37 | 0.7 | 4.5 | · | 2.7 | -2.4 | -5
9: NC(=O)CSc1nnc(Cc2cccs2)n1C1CCCCC1
  9 | 0.74 | 4.9 | · | 1.3 | -2.6 | -12
10: CCCCC(=O)N(Cc1ccc(F)cc1)C1CCS(=O)(=O)C1 (centres undefined)
  25 | 0.63 | 0.6 | i | 5.3 | -0.1 | 5
11: CCCc1[nH]nc2c1C(C1CC=CCC1)C(C#N)=C(N)O2 (centres undefined)
  18 | 0.68 | -0.5 | i | 1.8 | 2.4 | 11
12: CN1CCN(CC(=O)Nc2ccccc2[N+](=O)[O-])CC1
  -15 | 0.68 | 0.1 | · | 5.2 | 0.7 | -5
13: CC(=O)Nc1cccc(NC(=O)/C=C/c2ccc(S(=O)(=O)N3CCOCC3)cc2)c1
  47 | 0.65 | -0.7 | i | 5.0 | -0.3 | 7
14: CN(C)C(=O)CSc1nnc(-c2ccco2)n1-c1ccccc1
  · | 0.69 | 1.6 | i | 5.5 | · | -11
15: CCN1CCN(C(=O)c2nn(-c3ccc(C)cc3)c(=O)c3c2c2ccccc2n3C)CC1
  -3 | 0.68 | 0.2 | · | -14 | 1.6 | 11
16: O=C(COC(=O)c1ccc(S(=O)(=O)N2CCOCC2)cc1)NC1CCCC1
  -4 | 0.71 | 1.4 | · | 0.9 | -3.7 | 7
17: C/C=C/C=C\C(=O)Nc1cccc(C2=NOC3(C2)C[C@@H](C(N)=O)N(C(=O)c2cc([N+](=O)[O-])cc([N+](=O)[O-])c2C)C3)c1 (some centres undefined)
  -8 | · | -1.3 | i | 2.6 | -5.8 | 5
18: Clc1ccc(-c2cc(CN3CCOCC3)no2)cc1
  -12 | 0.64 | 2.8 | i | 4.6 | 2.4 | 0
19: CC1CC(C)CN(c2ncc3c(n2)CC(c2ccc(Cl)cc2)CC3=O)C1 (centres undefined)
  0 | 0.7 | -6.3 | · | -1.2 | 3.2 | 6
20: CCN(CC)P(=O)(/C(Cl)=C\Nc1c(C)n(C)n(-c2ccccc2)c1=O)N(CC)CC
  7 | 0.78 | 0.5 | · | -2.4 | 3.9 | -5
21: CCN(c1ccccc1)S(=O)(=O)c1ccc(C(=O)N(C)CCc2ccc(OC)c(OC)c2)cc1
  -1 | 0.67 | -1.9 | i | 6.2 | -6.7 | 1
22: COc1ccc(S(=O)(=O)N(C)CC(=O)Nc2ccc(C(F)(F)F)cc2)cc1Cl
  1 | 0.68 | -0.9 | · | 0.9 | -0.7 | -14
23: COCC(C)n1c(C)cc(C(=O)COC(=O)c2c(C)nn(-c3ccccc3)c2C)c1C (centres undefined)
  -6 | 0.74 | 0.9 | · | 2.2 | -0.9 | 11
24: CCc1ccc(N(C(=O)Cn2nnc(-c3ccccc3)n2)C(C(=O)NC2CCCCC2)c2ccccn2)cc1 (centres undefined)
  -9 | 0.7 | 1.3 | · | 4.9 | 1.6 | -2
25: COC(=O)c1ccccc1NC(=O)c1cc(OC)cc(OC)c1
  -2 | 0.81 | -1.0 | · | 1.8 | 5.1 | 7
26: Cc1ccc2cc3cc(C(=O)NCCCN4CCc5ccccc5C4)oc3nc2c1
  5 | 0.7 | 1.1 | · | -359 | 0.6 | 9
27: CC(=O)c1cc2c(cc1NC(=O)c1ccc(C)cc1)OCCO2
  4 | · | 4.0 | i | · | -0.8 | -1
28: Cc1ccc(NC2=C(C(=O)c3ccccc3)N(C)S(=O)(=O)c3ccccc32)cc1
  7 | 0.8 | 4.5 | · | 4.1 | -0.7 | 16
29: Cc1cccc(CCNC(=O)C2CCC(=O)N(Cc3ccccc3F)C2)n1 (centres undefined)
  -3 | 0.68 | 4.5 | i | 0.8 | 0.5 | -12
30: COc1cccc(O)c1CN1CCC(n2nccc2NC(=O)c2ccc3c(c2)OCO3)CC1
  11 | 0.69 | 1.0 | i | 3.7 | -2.6 | 1

Single records (already shown). Order of values: ALR inh | Ecoli growth | HNF4A DNA FP | FGF22 binding | UCH37 DUB inh | LANA-H2A inh | B2AR ag
C/C=C/C=C\C(=O)Nc1cccc(C2=NOC3(C2)C[C@@H](C(N)=O)N(C(=O)c2cc([N+](=O)[O-])cc([N+](=O)[O-])c2C)C3)c1 (some centres undefined) across the screens: -8 | · | -1.3 | i | 2.6 | -5.8 | 5
CCN(CC(=O)Nc1c(F)cccc1F)C(=O)c1nn(C)c(=O)c2ccccc12 across the screens: -4 | 0.71 | -1.9 | i | 2.1 | 1.4 | -9
CC(=O)Nc1cccc(NC(=O)/C=C/c2ccc(S(=O)(=O)N3CCOCC3)cc2)c1 across the screens: 47 | 0.65 | -0.7 | i | 5.0 | -0.3 | 7
Cc1cccc(CCNC(=O)C2CCC(=O)N(Cc3ccccc3F)C2)n1 (centres undefined) across the screens: -3 | 0.68 | 4.5 | i | 0.8 | 0.5 | -12

Quoted at random: 2 records from the list.
Order of values: ALR inh | Ecoli growth | HNF4A DNA FP | FGF22 binding | UCH37 DUB inh | LANA-H2A inh | B2AR ag
25: COC(=O)c1ccccc1NC(=O)c1cc(OC)cc(OC)c1
  -2 | 0.81 | -1.0 | · | 1.8 | 5.1 | 7
19: CC1CC(C)CN(c2ncc3c(n2)CC(c2ccc(Cl)cc2)CC3=O)C1 (centres undefined)
  0 | 0.7 | -6.3 | · | -1.2 | 3.2 | 6

Other entries follow.
Order of values: ALR inh | Ecoli growth | HNF4A DNA FP | FGF22 binding | UCH37 DUB inh | LANA-H2A inh | B2AR ag
31: C=CCc1cc(/C=N/NC(=O)CSc2nnc(CCCc3ccc(OC)cc3)o2)cc(OC)c1O
  · | · | 0.2 | · | · | 1.1 | 0
32: Cc1cccc(OCc2nnc(SCC(=O)N3CCCC3)n2C)c1
  -18 | 0.67 | 3.4 | · | 0.4 | 4.1 | 0
33: O=C(O)CCc1ccc(-c2cccs2)n1NC(=O)c1ccc(Cl)cc1
  98* | 0.67 | -2.5 | · | 2.6 | -0.9 | 0
34: COc1ccc(NC(=O)CNC(=O)c2nn(-c3ccc(OC)c(OC)c3)c(=O)c3ccccc23)c(OC)c1
  -6 | 0.66 | -2.1 | i | -15 | 8.6 | 13
35: COc1ccc(-n2nc(C(=O)NCc3ccco3)c3ccccc3c2=O)cc1
  -2 | 0.74 | -1.9 | · | -178 | 1.8 | 5
36: O=C(NCCCN1CCC(Cc2ccccc2)CC1)c1ccc2nc(N3CCOCC3)sc2c1
  -8 | 0.63 | 2.4 | i | 0.6 | -8.2 | -13
37: O=C(Nc1cccc(Cl)c1)c1ccc(-n2cncn2)c([N+](=O)[O-])c1
  -47 | 0.69 | -0.1 | · | 6.4 | -0.4 | 0
38: CN1CCC2(CC1)C1CN(C)CC=C1C(C#N)=C(N)C2(C#N)C#N (centres undefined)
  -14&-19 | 0.71&0.66 | -64&-37 | · | 1.0&-18 | 12&8.1 | 17&7
39: Cc1cccc(C(=O)NCC(=O)OCC(=O)c2cc(C)n(CC3CCCO3)c2C)c1 (centres undefined)
  -1 | 0.66 | 0.6 | i | 0.3 | 5.5 | 4
40: CCCCN(CCCC)c1ncnc2nc[nH]c12
  · | 0.67 | 0.6 | i | 2.5 | -2.5 | -1
41: COc1ccc(CNC(=O)CNC(=O)c2c(C)nn(C)c2Cl)cc1
  -6 | 0.7 | -4.2 | · | 4.4 | -2.1 | -1
42: COc1ccc(Nc2nnc(Cc3ccncc3)c3ccccc23)c(OC)c1
  -15 | 0.68 | 3.6 | i | 7.5 | -3.1 | 5
43: COc1cccc(C(C)NC(=O)Nc2cc(Cl)ccc2OC)c1 (centres undefined)
  5 | 0.68 | 0.6 | i | 2.1 | 2.3 | 3
44: CC(=O)C1=C(c2ccccc2)NC(=O)NC1c1ccc2c(c1)OCO2 (centres undefined)
  -11 | 0.61 | -1.0 | i | 4.2 | 0.2 | 1
45: Cc1ccc(NC(=O)CC2Oc3ccccc3NC2=O)c(C)c1 (centres undefined)
  -3 | 0.76 | 3.8 | i | 4.4 | -0.7 | -3
46: O=C(Cc1ccc(S(=O)(=O)N2CCOCC2)s1)N(Cc1ccccc1)c1ccccc1
  -4 | 0.69 | 2.5 | i | 1.8 | -4.7 | -2
47: COc1ccccc1NC(=O)c1ccc(N2CC3CC(C2)c2cccc(=O)n2C3)c(NC(=O)c2ccncc2)c1 (centres undefined)
  2 | 0.7 | 0.5 | i | 1.0 | -17 | -6
48: Cc1ccc(CNC(=O)CCNC(=O)c2ccc(Br)o2)cc1
  -3 | 0.71 | -5.1 | · | -0.4 | -2.1 | -3
49: Nc1cc(C(=O)OCC(=O)c2ccc(CC(=O)N3CCOCC3)s2)ccc1Cl
  · | 0.68 | -5.5 | i | 3.2 | -2.3 | 2
50: CCOC(=O)C1(CC2CCCCO2)CCN(C(=O)Nc2ccccc2CC)CC1 (centres undefined)
  1 | 0.66 | 2.2 | i | 2.5 | -4.9 | 4
51: Cc1cc(C)c(S(=O)(=O)Nc2ccc3c(c2)CCC3)c(C)c1
  -3 | 0.63 | 3.1 | i | 1.8 | -4.7 | -8
52: O=C(CSCc1cccc(Br)c1)N=Nc1c(O)[nH]c2ccccc12
  · | 0.66 | -1.7 | · | 4.4 | 1.4 | 8
53: O=[N+]([O-])c1cc([N+](=O)[O-])c(Oc2cccc3c2CCCC3)cc1NN1CCCCC1
  · | 0.67 | -1.9 | i | 1.7 | · | 9
54: COc1ccc(Nc2nc3ccccc3c(=O)[nH]2)cc1
  -6 | 0.68 | 0.8 | i | -43 | 21* | -7
55: O=C(CCNC(=O)c1ccco1)Nc1nc(-c2ccccc2)cs1
  11 | 0.58 | 2.6 | i | -1.0 | -3.6 | ·
56: COc1ccc(S(=O)(=O)Nc2ccc3cn[nH]c3c2)cc1[N+](=O)[O-]
  -8 | 0.64 | -2.1 | i | 2.3 | -0.9 | -2
57: COc1ccc(CCNC(=O)c2cc3ccccn3n2)c(OC)c1OC
  27 | 0.77 | -1.1 | i | 3.0 | 3.4 | -10
58: CC1CCCCN1C(=O)CN1C(=O)c2ccccc2S1(=O)=O (centres undefined)
  -3 | 0.71 | -1.9 | i | 5.7 | -4.2 | -3
59: CC1(C(=O)N/N=C/c2ccc([N+](=O)[O-])o2)CC1(Br)Br (centres undefined)
  -19 | · | 0.8 | · | · | 13 | 1
60: O=C(Oc1csc(=S)n1C(=O)c1ccccc1)c1ccccc1
  10 | · | -1.9 | · | · | 3.5 | 0
61: CC(C)CC1c2[nH]c3ccccc3c2CCN1C(=O)CCC(=O)N(C)C (centres undefined)
  36 | 0.76 | -1.0 | i | -27 | 5.9 | 0
62: Cc1ccc(OCCCC(=O)NC(C)c2ccccc2)cc1 (centres undefined)
  -8 | 0.73 | 0.5 | · | 0.5 | 0.9 | -2
63: Cc1cc(C)c2nc3nc(C)cc(C)c3c(N)c2c1
  -23 | 0.63 | -0.9 | i | -310 | -7.5 | 6
64: COc1ccc(C(C(=O)NC(C)(C)C)N(C(=O)CCC(=O)Nc2cc(C)on2)c2ccc(C)c(C)c2)cc1 (centres undefined)
  -1 | 0.66 | 1.3 | i | 0.8 | -5.7 | -9

A portion of the library (hit frequency here may not be typical).
